ALR inh – human ALR oxidase inhibition via reduced H2O2; purified ALR, DTT oxidation, H2O2 HRP-luminol luminescence; inhibition, % (concentration not given with the values); actives 3.8% (n = 290,000); AID 485317;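 active means mean and each replicate at 75% or more; inconclusive means only one of the two met; inactive means neither met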;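 further: stock transfer was 7.5 nL into about 7.5 µL; 0% = neutral wells and 100% = wells with inactivated enzyme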
Target sequence (P55789 whole entry, looked up): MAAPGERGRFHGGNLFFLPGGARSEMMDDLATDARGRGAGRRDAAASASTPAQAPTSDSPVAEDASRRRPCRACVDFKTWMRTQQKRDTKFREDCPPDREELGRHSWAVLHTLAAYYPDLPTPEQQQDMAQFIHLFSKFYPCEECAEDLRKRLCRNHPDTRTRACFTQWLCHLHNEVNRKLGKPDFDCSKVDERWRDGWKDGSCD
HNF4A DNA FP – change in binding of human HNF4 alpha to DNA; P41235; HNF4a-FITC DNA binding, fluorescence polarization, 1 h; activity change, % at 10 µM; actives 0.3% (n = 360,000); AID 1224865; in the data active means activity change above about 30%, passing the limit was not always enough;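 further: controls were the assay level and a saturating level of protein; the project sought stronger binding though the title names inhibitors; some compounds called inactive have numbers as strong as hits; positive values seem to mean higher polarization but the record does not say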
Target sequence (P41235 whole entry, looked up): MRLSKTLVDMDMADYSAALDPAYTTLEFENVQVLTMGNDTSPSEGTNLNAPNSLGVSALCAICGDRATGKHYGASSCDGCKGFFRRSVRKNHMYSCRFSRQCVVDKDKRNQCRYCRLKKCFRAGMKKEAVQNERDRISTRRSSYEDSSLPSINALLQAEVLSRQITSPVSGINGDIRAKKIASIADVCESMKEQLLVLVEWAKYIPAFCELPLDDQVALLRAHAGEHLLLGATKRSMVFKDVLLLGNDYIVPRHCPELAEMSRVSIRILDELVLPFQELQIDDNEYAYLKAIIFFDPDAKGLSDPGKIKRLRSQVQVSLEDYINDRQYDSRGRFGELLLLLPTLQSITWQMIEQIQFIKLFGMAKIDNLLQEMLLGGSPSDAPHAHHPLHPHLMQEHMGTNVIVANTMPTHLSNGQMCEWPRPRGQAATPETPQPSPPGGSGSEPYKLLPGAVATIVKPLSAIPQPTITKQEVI
MLL AF4-AF9 inh – inhibitors of human MLL-AF4/AF9 interaction. P42568. AlphaScreen, biotin-AF4 peptide binding to FLAG-AF9. inhibition, % at 10 µM. actives 0.47% (n = 350,000). AID 651704;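 active means every replicate reaching a set inhibition limit, whatever the replicate mean, cut at about 25% in these data; inconclusive means mean inhibition reaches that limit but some replicates miss it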;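 further: 0% = plate neutral control median and 100% = total signal loss; the record names both 10 and 1 µM as test concentration; the first replicate is given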
Ecoli rRNA inh – inhibits bacterial ribosomal RNA function over humanized ribosomes; E. coli WT GFP vs humanized-ribosome RFP mutants, fluorescence, 24 h; stronger effect = lower value; DMSO median 0, no signal -100; GFP signal change (wild-type ribosome), % (concentration not given with the values); actives 1.6% (n = 350,000);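 active means significant combined selectivity score with lowered wild-type GFP, culture density cut under 30%, mutant RFP and density less affected; inactive means any of these conditions unmet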; further: one replicate is shown; some compounds called inactive have numbers as strong as hits
Ecoli growth – blocks Escherichia coli growth; OD600, 23 h; stronger effect = lower value; OD600 absorbance (concentration not given with the values); actives 0.21% (n = 330,000); AID 1053175;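 active means OD600 absorbance below the run mean of sample wells minus 3.6 SD, in any replicate, cut at about 0.56 in these data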;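 further: stock transfer was 300 nL into about 60 µL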
Vif TR-FRET – inhibitors of Vif binding to APOBEC3G peptide, primary screen, biochemical, TR-FRET, GST-Vif 1-94, biotin-A3G peptide, dose response retest (AID 1117319) | TR-FRET GST-Vif / biotin-A3G peptide binding; higher % means a stronger effect; test concentration not given here; strong numbers were not always called active | inhibition, %; hits with a dose series show IC50 in µM | actives 0.57% (n = 260,000);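 active means above the screen mean plus three standard deviations and confirmed in dose response; inconclusive means results disagree or hit not tested in dose response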;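 further: Vif residues 1-94 fused to GST binding biotinylated APOBEC3G peptide 110-148; 0% = full assay without inhibitor and 100% = GST in place of GST-Vif; retest series ran down from 100 µM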
FGF22 binding – binders of recombinant human FGF22 by thermal shift. Q9HCT0. SYPRO orange fluorescence; percent of sucrose octasulfate shift, DMSO zero. calls only at 9.99 µM. actives 1.5% (n = 340,000);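 active means melting point raised past a set limit in the mean and every replicate; inconclusive means no clear call; three in four hits are not shown here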
Target sequence (Q9HCT0 whole entry, looked up): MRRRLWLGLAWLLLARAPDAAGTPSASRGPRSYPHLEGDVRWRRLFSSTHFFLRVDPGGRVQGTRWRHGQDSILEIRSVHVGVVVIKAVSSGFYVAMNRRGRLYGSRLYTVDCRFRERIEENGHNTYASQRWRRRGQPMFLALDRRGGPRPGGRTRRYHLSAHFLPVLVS
Ecoli rRNA inh OD600 – also measured in Ecoli rRNA inh; calls as there; OD600 change, %; measured here: OD600 growth;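 optical density of the mix in the first replicate; 0 = DMSO median and -100 = no signal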
Ecoli rRNA inh RFP – second read-out of Ecoli rRNA inh, no call of its own (marks repeat the call); RFP signal change, %; measured here: RFP humanized mutant strains;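 first replicate; 0 = DMSO median and -100 = no signal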
An asterisk follows results filed as active; i = inactive; u = inconclusive; x = not tested or not shown; & = joins results of further samples.

SMILES	ALR inh	HNF4A DNA FP	MLL AF4-AF9 inh	Ecoli rRNA inh	Ecoli rRNA inh OD600	Ecoli rRNA inh RFP	Ecoli growth	Vif TR-FRET	FGF22 binding
COc1ccccc1N(C)S(=O)(=O)c1ccc(Cl)c(C(=O)NNC(=O)c2ccccc2O)c1	13	-5.2	3.8	-27	-35	-4.2	0.63	x	i
O=C(NCCCN1CCOCC1)C(=O)NCC1OCCN1S(=O)(=O)c1ccc(F)cc1 (centres undefined)	-15	-3.7	1.0	16	15	-0.3	0.69	x	i
Cc1ccc(NC(=O)CSc2nnc(-c3cc(C)on3)o2)cc1	-9	-0.2	-8.4	-1	1	-3.3	0.71	-8%	i
CCCCn1c(SCC(=O)Nc2ccc3c(c2)OCCO3)nnc1C(CC)N(C)C (centres undefined)	-3	-1.6	0.8	0	-7	-3.0	0.67	82%	i
O=C1Cc2c([nH]c3ccc(Br)cc23)-c2ccccc2N1	x	4.7	-2.1	3	-27	-13	x	3%	i
O=C(c1ccc(Cl)cc1)N1CCN(C(=O)c2ccco2)CC1	-4	-1.4	x	x	x	x	0.69	1%	x
COc1ccccc1CNC(=O)CS(=O)(=O)Cc1ccccc1	-2	2.8	-1.4	6	8	1.6	0.68	-5%	i
Cc1ccccc1Cn1cc(CCC(=O)N2CCOCC2)c2ccccc21	-7	-0.2	4.2	-3	-3	2.1	0.63	-9%	i
Cc1noc(C)c1NC(=O)Nc1ccc2c(c1)CC(=O)N([C@H](C)CO)C[C@H](C)[C@H](CN(C)C)O2	x	x	-2.4	2	-1	-1.8	x	x	i
N#Cc1cc([N+](=O)[O-])ccc1Oc1ccc(-c2nnco2)cc1	-1	-1.5	-0.7	5	17	-1.4	0.66	1%	i
COc1cccc(-c2cc3c(c4c2ccn4C)C2CCC3C2)c1 (centres undefined)	x	5.3	9.4	-9	-11	-1.1	x	x	i
COc1ccc(/C=C/C(=O)OCC(=O)Nc2cccc(S(=O)(=O)NC3=NCCCCC3)c2)cc1	-2	-3.6	u	-16	-8	3.0	0.72	17%	i
Cc1noc(C)c1NC(=O)Nc1cccc2c1O[C@H](CN(C)CC1CC1)[C@@H](C)CN([C@H](C)CO)C2=O	x	x	-1.9	0	-7	-0.6	x	x	i
O=C([C@@H]1[C@@H](CO)[C@@H]2Cn3c(ccc(-c4cccnc4)c3=O)[C@H]1N2Cc1ccncc1)N1CCOCC1	x	x	-4.3	2	3	-0.7	x	x	i
CN(Cc1ccccc1)c1ncnc(N)c1[N+](=O)[O-]	-3	1.1	0.3	-2	-6	-6.1	0.67	12%	i
CCN(C[C@@H]1[C@H](c2ccccc2)[C@H](CO)N1C(C)=O)C(=O)c1ccccn1	x	x	-0.9	2	0	0.9	x	x	i
NC(=O)C(C(=O)/C=C/c1ccc(Cl)cc1)=C1SCCS1	-4	0.7	-16	3	-7	7.2	0.71	3%	i
COc1ccc2c3c([nH]c2c1)[C@@H](CO)N(C(=O)Nc1ccc(F)cc1)CC31CN(Cc2nccs2)C1	x	x	3.1	2	-17	3.9	x	x	i
COC(=O)C1CCC(=S)N1C(=O)c1ccccc1 (centres undefined)	58	2.2	-6.4	3	-1	1.5	0.7	x	i
NNC(=O)c1ccc(NS(=O)(=O)c2ccc(Br)cc2)cc1	44	x	x	-8	8	-0.2	x	-7%	i
O=C(CSc1nc(C2CCCCC2)n(-c2ccccc2)n1)NCC(F)(F)F	-2	1.8	x	x	x	x	0.7	x	x
CC(C)c1ccc(OCC(=O)NCc2n[nH]c(=O)c3ccccc23)cc1	-2	1.7	-0.6	5	4	-1.6	0.69	-10%	i
COc1ccc(CC2S/C(=C(\C#N)C(=O)NCc3ccco3)N(c3ccc(C)cc3)C2=O)cc1 (centres undefined)	2	3.3	x	x	x	x	0.78	20%	x
Clc1ccc(-c2nnc(SCc3ccon3)o2)c(Cl)c1	-5	0.8	x	x	x	x	0.7	71%	x
CCCCn1c(=O)n(CC(=O)Nc2ccc(OC)c(Cl)c2)c(=O)c2c1nc(CO)n2CCC	-2	2.9	x	x	x	x	0.7	5%	x
O=C(NC1CCCCCC1)c1cc(S(=O)(=O)N2CCOCC2)ccc1F	4	0.8	-3.0	5	6	2.0	0.64	x	i
CCN(CC1COc2ccccc2O1)S(=O)(=O)c1ccc(C)cc1 (centres undefined)	-30	1.9	x	x	x	x	0.64	u	x
CC1(C)CC2(CC(c3ccccc3)c3ccc(O)cc3O2)NC(=S)N1 (centres undefined)	9	-0.1	-4.2	-5	-14	-0.4	0.68	1%	i
C[C@H](CO)N1C[C@H](C)[C@H](CN(C)S(=O)(=O)c2ccccc2)Oc2ccc(NS(=O)(=O)c3cccs3)cc2CC1=O	x	x	-1.4	2	9	-2.1	x	x	i
C=CCn1c(SCC(=O)NCCc2ccccc2)nc2c([nH]c3ccccc32)c1=O	-3	1.2	-0.9	7	3	-2.7	0.74	-4%	i
Cc1cccc(NC(=O)CSc2nccn2C)c1	100*	1.2	x	x	x	x	0.7	1%	x
CN(C)c1nc(C(=O)OCCO)nc(N(C)C)n1	0	2.2	x	x	x	x	0.74	-1%&-4%	x
CC(C)Cn1c(SCC(=O)Nc2ncccn2)nc2ccccc21	-1	1.8	1.4	10	2	-0.3	0.7	9%	i
O=C(C[C@@H]1CC[C@@H]2[C@H](COC[C@@H](O)CN2C(=O)c2ccncc2)O1)NCc1cc(F)cc(F)c1	x	x	-11	1	2	-1.3	x	x	i
COC(=O)c1ccc(N(C(=O)c2ccco2)C(C(=O)NC2CCCC2)c2ccco2)cc1 (centres undefined)	-3	-4.8	x	x	x	x	0.74	-5%	x
CC(=O)Nc1ccc(S(=O)(=O)N2CCN(CC(O)COc3ccc4ccccc4c3)CC2)cc1 (centres undefined)	-22	-1.0	x	x	x	x	0.71	-5%	x

The list goes on, starting with the last 3 of the part before.
SMILES	ALR inh	HNF4A DNA FP	MLL AF4-AF9 inh	Ecoli rRNA inh	Ecoli rRNA inh OD600	Ecoli rRNA inh RFP	Ecoli growth	Vif TR-FRET	FGF22 binding
O=C(C[C@@H]1CC[C@@H]2[C@H](COC[C@@H](O)CN2C(=O)c2ccncc2)O1)NCc1cc(F)cc(F)c1	x	x	-11	1	2	-1.3	x	x	i
COC(=O)c1ccc(N(C(=O)c2ccco2)C(C(=O)NC2CCCC2)c2ccco2)cc1 (centres undefined)	-3	-4.8	x	x	x	x	0.74	-5%	x
CC(=O)Nc1ccc(S(=O)(=O)N2CCN(CC(O)COc3ccc4ccccc4c3)CC2)cc1 (centres undefined)	-22	-1.0	x	x	x	x	0.71	-5%	x
Clc1ccc(C2=C3CCCCn4c(-c5ccccc5)c[n+](c43)C2)cc1	x	2.6	x	x	x	x	0.69	u	x
C[C@@H]1CCCCO[C@@H](CN(C)S(=O)(=O)c2ccccc2)[C@H](C)CN([C@@H](C)CO)C(=O)c2cc(NC(=O)Cc3ccccc3)ccc2O1	x	x	0.8	3	-2	-0.5	x	x	i
CC1(C)NC(=O)N(c2ccccc2Cl)C1(C)NO (centres undefined)	x	0.9	x	x	x	x	0.7	-2%	x
Cc1ccccc1Nc1nc(N)nc(CSc2nc3ccccc3c(=O)n2CCCO)n1	1	3.0	-1.0	-5	-15	0.9	0.66	-6%&-8%	i
COCc1[nH][nH]c(=O)c1C=Nc1ccc(F)cc1F	4	-2.5	x	x	x	x	0.66	5%	x
CC(=O)C1=C(O)C(=O)N(CCCCCC(=O)O)C1c1ccc(N(C)C)cc1 (centres undefined)	14	-1.1	x	x	x	x	0.71	5%	x
CCC1CCC(C(=O)NC(CCSC)C(=O)NCCN(CC(C)C)CC(C)C)CC1 (centres undefined)	-2	-2.2	-2.1	7	-2	0.1	0.67	-2%	i
Cc1nc(C(F)(F)F)ccc1C(=O)N1CCC1(C)C(=O)NCc1ccc(Cl)cc1 (centres undefined)	x	0.0	-2.5	6	13	2.3	x	x	i
CC1(Cc2ccccc2Cl)C(=O)Nc2c(Cl)cccc21 (centres undefined)	x	-1.6	-1.1	-65	-81	-16	x	x	i
O=C(Nc1ccccc1C(=O)NC1CCCCC1)c1ccco1	-4	-0.1	x	x	x	x	0.78	9%	x
COc1ccc(C(=O)N[C@H](C(=O)NCC2CCCCC2)C(C)C)cc1	-1	0.9	x	x	x	x	0.69	20%	x
O=C(C[C@H]1CC[C@@H](NC(=O)C2CCC2)[C@H](CO)O1)NCc1ccccc1Cl	x	x	-1.1	-1	-1	-2.2	x	x	i
Cc1nn(-c2ccccc2)c(Cl)c1C(=O)NCC(C)C	-14	3.5	x	x	x	x	0.73	9%	x
Cn1c(=O)c2c(nc3sccn32)n(C)c1=O	-12	-12	x	x	x	x	0.7	17%	x
O=C(O)C1Cc2c([nH]c3ccccc23)C(c2ccc3c(c2)OCO3)N1 (centres undefined)	2	-1.1	2.9	0	1	0.7	0.7	7%	i
CC1C(=O)N2CCCc3cc(NS(=O)(=O)c4ccc(F)cc4)cc1c32 (centres undefined)	-5	-1.6	-0.2	-3	-2	-1.6	0.66	-1%	i
CCOc1ccccc1C(=O)Nc1cccc2ccccc12	1	2.9	-1.7	8	12	1.8	0.69	x	i
COc1ccccc1N(CC(=O)NCC1CCCO1)C(=O)CNS(=O)(=O)c1ccc(C)cc1 (centres undefined)	-7	-2.7	x	x	x	x	0.72	5%	x
C[C@@H]1CN([C@@H](C)CO)C(=O)c2cc(-c3ccncc3)cnc2O[C@@H]1CN(C)S(=O)(=O)c1ccccc1	x	x	-9.9	6	9	-0.7	x	x	i
Cn1c(/C(C#N)=C(\O)CN2CCN(Cc3ccccc3)CC2)nc2ccccc21	-1	-10	x	x	x	x	x	1%	x
CC(c1ccccc1)n1c(N2CCNCC2)nc2c1c(=O)[nH]c(=O)n2C (centres undefined)	-8	-6.9	0.6	10	11	-0.1	0.63	x	i
COc1ccc(S(=O)(=O)Nc2nc3c(s2)CCCC3)cc1	19	-1.3	-0.3	-5	-13	0.1	0.71	6%	i
c1ccc(CNc2nc(NCc3cccs3)nc3ccsc23)cc1	x	2.3	1.2	-65	-77	-30	x	x	i
COc1cc(OC)cc(C(=O)N[C@H](C(=O)OCC(=O)Nc2ccc(C)cc2C)C(C)C)c1	0	-2.3	6.5	-8	-15	3.9	0.65	x	x
O=C(c1ccc(Cl)cc1)N1CCCC(C(=O)N2CCN(c3ccccc3)CC2)C1 (centres undefined)	57	-4.1	0.1	-16	-18	-3.4	0.67	5%	i
COc1ccc(NC(=O)N(C)C[C@H]2Oc3cc(-c4cccc(C(=O)N(C)C)c4)ccc3S(=O)(=O)N([C@@H](C)CO)C[C@@H]2C)cc1	x	x	-0.6	1	-2	-2.0	x	x	i
COc1ccc(-c2cc(C(=O)Nc3ccc(C)c(N)c3)c3ccccc3n2)cc1	-9	0.5	4.2	0	-13	0.9	0.67	x	i
C[C@H](CO)N1C[C@H](C)[C@H](CN(C)S(=O)(=O)c2ccc(F)cc2)Oc2ccc(NS(=O)(=O)c3ccc(Cl)cc3)cc2CC1=O	x	x	0.3	3	-5	-0.4	x	x	i
CCN(CC(=O)NCc1ccc(F)cc1)Cc1nc2cc(Cl)ccc2c(=O)[nH]1	-5	3.7	x	x	x	x	0.73	-3%	x
CN1C(=O)c2cc(NS(=O)(=O)c3ccc(Cl)cc3)ccc2OC[C@@H]2O[C@H](CC(=O)O)CC[C@H]21	x	x	-0.4	-1	-6	-1.1	x	x	i

Screens: PubChem BioAssay, several laboratories

The list is partial. The share of hits here may be higher or lower than overall.
